Compound activity from PubChem.
KCNQ2 enhance – potentiators of rat KCNQ2 potassium channel. AID 2239. 0.54% of 310,000 active. B-score at 10 µM. CHO-K1 KCNQ2, FluxOR thallium flux fluorescence; stronger effect = higher value. O88943;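 active = fluorescence ratio B-score at least 3 SD of library B-scores, with initial fluorescence B-score within 3 SD, cut at about 5.3 in these data; same plate scores as AID 2156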;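 also: B-score of peak minus minimum over baseline fluorescence ratio after K+ and Tl+ stimulus; positive B-score means potentiation of KCNQ2 with more thallium influx and brighter signal; only the inactives scoring about 0 or higher are listed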
Target sequence (O88943 whole entry, looked up): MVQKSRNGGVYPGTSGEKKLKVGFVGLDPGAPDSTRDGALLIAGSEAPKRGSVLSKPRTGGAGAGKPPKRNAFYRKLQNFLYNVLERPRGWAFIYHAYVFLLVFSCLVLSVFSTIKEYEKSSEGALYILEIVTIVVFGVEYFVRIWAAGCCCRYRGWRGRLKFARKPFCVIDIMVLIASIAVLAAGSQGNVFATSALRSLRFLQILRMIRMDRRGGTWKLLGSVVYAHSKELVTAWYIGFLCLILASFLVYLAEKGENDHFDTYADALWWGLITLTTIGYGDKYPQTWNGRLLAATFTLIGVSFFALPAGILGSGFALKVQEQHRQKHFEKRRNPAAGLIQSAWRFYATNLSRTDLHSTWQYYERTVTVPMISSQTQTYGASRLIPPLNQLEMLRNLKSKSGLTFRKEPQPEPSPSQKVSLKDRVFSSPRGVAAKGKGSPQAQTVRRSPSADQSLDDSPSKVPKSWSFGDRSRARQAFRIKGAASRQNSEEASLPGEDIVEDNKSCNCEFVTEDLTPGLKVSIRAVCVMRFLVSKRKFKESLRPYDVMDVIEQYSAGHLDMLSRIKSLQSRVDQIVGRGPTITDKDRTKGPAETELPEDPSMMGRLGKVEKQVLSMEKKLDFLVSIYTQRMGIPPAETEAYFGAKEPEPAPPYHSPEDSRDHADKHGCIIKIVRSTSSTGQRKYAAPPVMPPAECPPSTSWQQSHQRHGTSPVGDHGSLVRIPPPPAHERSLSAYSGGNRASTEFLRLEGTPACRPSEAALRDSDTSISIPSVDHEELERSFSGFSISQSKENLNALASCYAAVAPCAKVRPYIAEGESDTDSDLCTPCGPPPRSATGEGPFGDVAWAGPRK
KCNQ2 enhance baseline – also measured in KCNQ2 enhance; calls as there; B-score; compound at 10 µM; measured here: initial fluorescence intensity artifact check;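 brightness before thallium and not channel activity; 0 = typical well and far values either way flag optical interference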
* marks the source's active call; other numbers are inactive results. Some of the compounds tested. The share of hits here may be higher or lower than overall.

Each structure is followed by: KCNQ2 enhance, KCNQ2 enhance baseline
> OCCCn1c(C2CCCN2c2nc(-c3ccc(F)cc3)cs2)nc2cc(Cl)c(N3CCCCC3)cc21 (stereo unspecified)
→ 10.4*, 1.06*
> CCOc1ccccc1N(C)C(=O)Cn1ncc2c([nH]c3ccccc32)c1=O
→ 1.71, -1.53
> Cn1ccnc1C(=O)c1ccc(NN)c([N+](=O)[O-])c1
→ 1.33, -1.51
> Cc1ccnc(Nc2nc(-c3c(C)nc4sccn34)cs2)c1
→ 0.6, 2.08
> CC(CC(=O)N1CCN(c2cccc(Cl)c2)CC1)S(=O)(=O)c1ccc2c(c1)NC(=O)CO2 (stereo unspecified)
→ 2.59, -0.68
> Cc1cc(C(=O)CN2C(=O)NC3(CCCCC3)C2=O)c(C)n1Cc1ccc2c(c1)OCO2
→ 0.09, -0.98
> Cc1cc2c(cc3c(=O)n(CC(=O)NCCCN4CC(C)CC(C)C4)ncn32)s1 (stereo unspecified)
→ 2.61, -0.64
> COc1ccc(OCC(O)CN2C(=O)NC(C)(C)C2=O)cc1 (stereo unspecified)
→ 1.72, 0.11
> CC(=O)c1cccc(NC(=O)CC2S/C(=N/N=C/c3cccs3)NC2=O)c1 (stereo unspecified)
→ 0.67, 0.29
> Cc1cc(S(=O)(=O)Nc2noc3ccccc23)ccc1F
→ 0.47, 0.09
> Cc1cc(C(=O)OC(C)C(=O)N2CCc3ccccc32)ccc1[N+](=O)[O-] (stereo unspecified)
→ 0.88, -2.09
> COC(=O)CN(c1nc(C)c(Br)c(OC)n1)S(=O)(=O)c1ccccc1
→ 1.5, 0.64
> O=C(CSc1nc2ccccc2s1)Nc1nccs1
→ 0.71, -1.23
> O=C(c1ccncc1)N1N=C(C2CC2)CC1(O)C(F)(F)F (stereo unspecified)
→ 6.54*, -2.78*
> CCOC(=O)N1CCN(C2CCCN(C(=O)c3cccc(Cl)c3)C2)CC1 (stereo unspecified)
→ 0.03, -0.41

Next section
Each structure is followed by: KCNQ2 enhance, KCNQ2 enhance baseline
> Cc1ccc(OCC(=O)Nc2ccc(N3CCCC3)cc2)cc1C
→ 0.91, -0.03
> Cc1ccc(OCC(=O)NNC(=O)c2cc(C)[nH]n2)cc1
→ 0.14, 0.39
> CC(=O)c1c(C)[nH]c(C(=O)OCc2ccc([N+](=O)[O-])cc2)c1C
→ 0.18, 2.82
> CC(C)CC(=O)NC(=S)Nc1cccc(NC(=O)c2ccccc2)c1
→ 0.43, 0.01
> O=C(N/C(=C/c1cccc(Br)c1)c1nc(=S)[nH][nH]1)c1ccccc1
→ 2.94, -3.23
> Cc1nc2ccc(NC(=O)c3ccc4ccccc4n3)cc2s1
→ 0.75, 3.45
> N#CCCn1nnc2ccccc21
→ 1.79, 0.28
> COc1cc2c(cc1OC)CN(C(=S)Nc1ccc(C)cc1C)CC2
→ 2.88, -1.91
> CCC(C)[C@H]1COCCS(=O)(=O)N1Cc1ccc(Cl)cc1Cl (stereo partly specified)
→ 0.55, -0.54
> O=C(c1ccco1)N1CCN(S(=O)(=O)Cc2ccc(Cl)cc2)CC1
→ 0.71, 0.03
> CCOC(=O)c1[nH]c2ccccc2c1NC(=O)CCN1CC(C)OC(C)C1 (stereo unspecified)
→ 0.7, 1.33
> Cc1ccc(N(C(=O)c2csnn2)C(C(=O)NC2CCCCC2)c2ccncc2)c(C)c1 (stereo unspecified)
→ 0.36, -0.03
> O=C1OC(/C=C/c2ccccc2)=NC/1=C/c1ccco1
→ 0.11, 1.09
> COc1ccccc1C(=O)Nc1ccc(C2=NNC(=O)CC2C)cc1 (stereo unspecified)
→ 0.67, -1
> COc1cccc(NC(=O)c2sc3ncn(CC(=O)N4CCN(c5ccccn5)CC4)c(=O)c3c2C)c1
→ 1.8, 0.7

Later entries:
Each structure is followed by: KCNQ2 enhance, KCNQ2 enhance baseline
> COc1cc2cc(CN(Cc3cccnc3)C(=O)NCc3ccccc3)c(=O)[nH]c2cc1OC
→ 0.6, -0.06
> Oc1[nH]c2ccccc2c1N=Nc1c(F)c(F)c(Cl)c(F)c1F
→ 0.24, -2.57
> C#CCONC(=O)c1cc(OCC(F)(F)F)ccc1OCC(F)(F)F
→ 0.16, 0.32
> COc1cccc(CN2CCN(Cc3nc(-c4cccs4)oc3C)CC2CCO)c1 (stereo unspecified)
→ 0.71, 0.71
> CCN(CC(=O)Nc1ccc(OC)cc1)CC(=O)Nc1ccc(Cl)cc1F
→ 0.67, -0.49
> CCOc1ccc(N2C(=O)Nc3ccccc3C2(O)C(=O)NCc2ccc(OC)cc2)cc1 (stereo unspecified)
→ 1.54, 2.14
> O=C(c1ccc(F)cc1)N1CCN(Cc2ccccc2)CC1
→ 1.1, -1.91
> Cc1cccc(N(CC(=O)NC2CCCC2)C(=O)CS(=O)CC(=O)Nc2ccc3c(c2)OCO3)c1C (stereo unspecified)
→ 1.01, -1.99
> COc1ccc(NC(=O)c2c(C)oc3c2CCCC3)cc1
→ 0.6, -0.59
> Cc1cccc(CSCCNC(=O)c2ccc(CN3CCOCC3)cc2)c1
→ 0.3, -0.33
> Cn1ncc(Br)c1C(=O)Nc1cccc(C(F)(F)F)c1
→ 1.22, 0.35
> O=C(COC(=O)CSc1cccc2cccc(Cl)c12)Nc1ncc(C(F)(F)F)cc1Cl
→ 0.29, 1.14
> Cc1c(/C=C2\SC(=Nc3cccc(C(=O)O)c3)NC2=O)c2ccccc2n1C
→ 0.23, -1.06
> COc1ccccc1NS(=O)(=O)c1cc(N/C(=N\S(=O)(=O)c2ccccc2)c2ccc(F)cc2)ccc1Cl
→ 0.38, -0.37
> Cc1nn(CCC(=O)N2CCN(S(=O)(=O)c3ccccc3)CC2)c(C)c1C
→ 1.39, 0.24

Later entries.
Each structure is followed by: KCNQ2 enhance, KCNQ2 enhance baseline
> O=C(O)CN1C(=O)/C(=C\c2cc([N+](=O)[O-])ccc2OCc2ccccc2Cl)SC1=S
→ 4.98, -0.97
> Cc1cc2c(C)cc(=O)oc2c2c1NCCC2
→ 0.74, 1.85
> CC(=O)c1ccc(N2CCN(CC(=O)Nc3ccccc3N3CCOCC3)CC2)cc1
→ 1.19, -2
> Cc1ccc(Oc2nc3c(c(=O)n(C)c(=O)n3C)n2C)cc1C
→ 2.04, 0.48
> COc1ccc(CCNC(=O)C(=O)NCC2CCCO2)cc1OC (stereo unspecified)
→ 0.29, 0.62
> COc1ccccc1NC(=O)C1=C(C)NC(=O)NC1c1cc(C)cs1 (stereo unspecified)
→ 0.59, 0.19
> O=C(NC1CCN(C(=S)NCCc2ccccc2)CC1)C1CCCCC1
→ 1.31, -0.48
> CCc1nc(CN(C)C(=O)C2CCC(=O)N(Cc3cccc(F)c3)C2)no1 (stereo unspecified)
→ 1.68, -1.29
> Brc1cc(Br)c2ncnc(N3CCCCC3)c2c1
→ 0.83, 0.69
> Cc1cc(OCc2nnc(SCC(=O)OC3CCCCC3)o2)ccc1Cl
→ 0.08, -1.81
> O=C(O)c1ccccc1C(=O)c1ccc2c(c1)N(Cc1cccc(F)c1)C(=O)CO2
→ 0.82, 0.29
> O=c1cc(O)c2ccccc2n1Cc1ccccc1F
→ 3.02, -1.04
> O=C(COC(=O)CC1CC2CCC1C2)NC(=O)NCc1ccco1 (stereo unspecified)
→ 0.49, 0.96
> Cc1ccc(Oc2nnc(-c3cccs3)c3ccccc23)cc1
→ 0.26, -0.5
> COc1ccc(Cc2nnc(NC(=O)c3cccc([N+](=O)[O-])c3C)s2)cc1
→ 0.29, 0.05

Single records (already shown). Values in the order: KCNQ2 enhance, KCNQ2 enhance baseline
Results for COc1ccccc1NC(=O)C1=C(C)NC(=O)NC1c1cc(C)cs1 (stereo unspecified) : 0.59, 0.19
Results for CC(=O)c1ccc(N2CCN(CC(=O)Nc3ccccc3N3CCOCC3)CC2)cc1 : 1.19, -2

The list goes on.
Each structure is followed by: KCNQ2 enhance, KCNQ2 enhance baseline
> O=C(Nc1nccs1)c1ccc(NC(=O)c2ccco2)cc1
→ 1.45, 0.25
> CC(=O)/C(=N/Nc1ccccc1)N1CCOCC1
→ 1.06, -0.83
> CC(=O)NC1C(=O)N=C(SCc2ccccc2)NC1=O (stereo unspecified)
→ 0.46, 0.29
> COc1ccc(OCC(=O)Nc2cc(S(=O)(=O)N3CCCCC3)ccc2OC)cc1
→ 0.18, 1.43
> C/C(CC(=O)Nc1ccc([N+](=O)[O-])cc1)=N/NC(=O)C1C2CCCCC21 (stereo unspecified)
→ 0.55, 2.53
> CC(C)(C)c1ccc(Cn2nc(CC(=O)O)c3ccccc3c2=O)cc1
→ 0.7, 1.28
> CN1CCN(S(=O)(=O)c2cccc(C(=O)Nc3ccc(Br)cc3Br)c2)CC1
→ 1.04, 0.37
> O=C(Cn1cnc2c(nnn2-c2ccccc2)c1=O)N1CCOCC1
→ 0.14, -2.13
> CCC(=O)N1CCC2(CC1)Oc1ccc(Cl)cc1C(=O)C21CC(c2cccnc2)=NO1 (stereo unspecified)
→ 0.05, 1.52
> CCOC(=O)C1CCCc2c1[nH]c1c(C(N)=O)cccc21 (stereo unspecified)
→ 9.7*, -2.39*
> CCOc1ccc(Cn2nnc(C(=O)Nc3ccc(OC)cc3OC)c2N)cc1
→ 1.44, -0.87
> CCS(=O)(=O)Nc1ccc(C2=NN(C(C)=O)C(c3cccs3)C2)cc1 (stereo unspecified)
→ 0.05, -0.5
> CN(c1ccc(C(=O)NC2CC3CCC2C3)cc1)S(C)(=O)=O (stereo unspecified)
→ 0.06, -0.44
> O=C(NCc1cccnc1)c1cccc(S(=O)(=O)NCc2ccccc2)c1
→ 0.78, -1.03
> COc1ccc(S(=O)(=O)NC(CC(=O)NCC2CCCO2)c2ccco2)cc1 (stereo unspecified)
→ 0.44, -0.01

Reprinted at random: 3 records from the list.
Each structure is followed by: KCNQ2 enhance, KCNQ2 enhance baseline
> COc1ccc(S(=O)(=O)NC(CC(=O)NCC2CCCO2)c2ccco2)cc1 (stereo unspecified)
→ 0.44, -0.01
> CCOc1ccc(Cn2nnc(C(=O)Nc3ccc(OC)cc3OC)c2N)cc1
→ 1.44, -0.87
> CC(C)(C)c1ccc(Cn2nc(CC(=O)O)c3ccccc3c2=O)cc1
→ 0.7, 1.28

Additional entries follow:
Each structure is followed by: KCNQ2 enhance, KCNQ2 enhance baseline
> O=C(NCCS(=O)(=O)N1CCN(c2ccc(F)cc2)CC1)c1ccc2c(c1)OCO2
→ 0.07, 0.47
> COc1ccc(Cl)cc1NC(=O)c1[nH]nc(OC)c1[N+](=O)[O-]
→ 0.07, -0.36
> Cc1cccc(-n2c(C)cc(/C=N/NC(N)=S)c2C)c1
→ 0.47, -1.33
> O=C(COC(=O)Cc1ccc(Cl)c(Cl)c1)NCc1ccco1
→ 1.36, -0.68
> CCC(=O)Nc1nc2ccccc2n1Cc1ccccc1C
→ 3.58, -0.59
> O=C1NC2CCc3nc4ccccc4c(=O)n3C2=Nc2ccccc21 (stereo unspecified)
→ 0.08, 0.62
> O=C(CNCc1ccccc1Cl)Nc1ccc(C(=O)N2CCCCC2)cc1
→ 0.54, -0.07
> COc1ccc(-c2cc(=O)c3cc(C)ccc3[nH]2)cc1
→ 0.91, -0.92
> CCOc1ccc(C/C(O)=C2\C(=O)CC(C)(C)CC2=NCC(=O)O)cc1OCC
→ 1.39, -0.77
> COc1ccccc1NC(=O)CSc1nnc(-c2ccoc2C)n1CC1CCCO1 (stereo unspecified)
→ 0.81, 0
> COc1cccc(-c2nc(CS(=O)CC(=O)NC3CC3)c(C)o2)c1 (stereo unspecified)
→ 2.32, -0.83
> O=C(NCCc1ccccc1)c1cc(S(=O)(=O)N2CCOCC2)ccc1F
→ 0.71, 0.47
> Cc1cc(C)cc(C(=O)n2cnnc2N)c1
→ 0.11, 0.13
> CN(C)S(=O)(=O)c1ccc(S(=O)(=O)NCCN2CCOCC2)cc1
→ 1.17, -0.98
> O=C(NC(=S)Nc1ccccc1O)c1ccc(-c2ccc(Cl)cc2)o1
→ 0.27, 1

Going on with the list.
Each structure is followed by: KCNQ2 enhance, KCNQ2 enhance baseline
> CCN1CCN(CC(=O)Nc2ccccc2)C(=O)C1=O
→ 0.34, 0.84
> CCC(=O)Nc1cccc(-c2cc3ccccc3oc2=O)c1
→ 1.34, -2.27
> C/C=C/c1ccc(OCCCCN2CCC(C)CC2)c(OC)c1
→ 1.48, -0.45
> Cc1noc(/C=C/N(C)C)c1S(=O)(=O)NC1CCCCC1
→ 0.05, 2
> Cc1ccc(N(CC(=O)NC(C)(C)C)C(=O)CCC(=O)Nc2nccs2)c(C)c1
→ 1.66, -0.16
> O=C(CSCc1c(Cl)cccc1Cl)Nc1nccs1
→ 0.06, -1.17
> CCCC(=O)Nc1ccc(-c2cnc(-c3ccc(NC(=O)CCC)cc3)nc2)cc1
→ 1.32, 0
> Cc1cc(C)c2oc(C(=O)Nc3nnc(C(C)C)s3)cc(=O)c2c1
→ 0.41, 1.17
> CCN(c1ccccc1)S(=O)(=O)c1ccc(OC)c(NC(=O)CCc2nc3ccccc3c(=O)[nH]2)c1
→ 0.38, -1.17
> CCN(C(=O)CSc1nc2ccc(OC)cc2[nH]1)C1CCS(=O)(=O)C1 (stereo unspecified)
→ 0.57, 0.69
> CCOc1ccc(NC(=O)CCNS(=O)(=O)c2ccc3c(c2)oc(=O)n3C)cc1
→ 1.06, -0.97
> CC(C)Cc1nnc(NC(=O)CSc2nc(=O)cc(N)n2-c2ccccc2)s1
→ 1.93, -0.05
> Cc1cc(=O)n2nc(N3CCCC3C(=O)NCCCN3CCCCC3)sc2n1 (stereo unspecified)
→ 0.08, 1.25
> CCN1CCN(C(=O)c2cc3cc4cc(OC)ccc4nc3s2)CC1
→ 0.13, -0.26
> O=C(NN=C1CCCC1)c1ccccc1OCCOc1ccccc1
→ 1.59, 1.27
> Cc1ccc(NS(=O)(=O)c2ccc(C(=O)N3CCN(c4ccccn4)CC3)cc2)cc1
→ 0.49, -2.16
> COc1ccc(CCNC(=O)c2ccc(CN3CCOCC3)cc2)cc1
→ 1.91, -1.35
